Compound activity deposited in PubChem by National Center for Advancing Translational Sciences (NCATS).
TRb SRC2 PPI – qHTS for Inhibitors of the Interaction of Thyroid Hormone Receptor and Steroid Receptor Coregulator 2 | Thyroid hormone receptor beta (Homo sapiens), P10828 | TRbeta-SRC2 peptide binding, fluorescence polarization; receptor liganded with 1 µM T3 | Potency, µM (titrated, usually from 106 µM), for the others: at the top dose activity change, negative = inhibition, actives largely listed as inhibitors | hit rate 0.065% among 280,000 | AID 1469, 2008;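 further: plate controls were bound peptide for no effect and peptide without receptor for full effect; nearly all actives have a fitted effect of over 50% in size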
Target sequence (P10828 whole entry, looked up): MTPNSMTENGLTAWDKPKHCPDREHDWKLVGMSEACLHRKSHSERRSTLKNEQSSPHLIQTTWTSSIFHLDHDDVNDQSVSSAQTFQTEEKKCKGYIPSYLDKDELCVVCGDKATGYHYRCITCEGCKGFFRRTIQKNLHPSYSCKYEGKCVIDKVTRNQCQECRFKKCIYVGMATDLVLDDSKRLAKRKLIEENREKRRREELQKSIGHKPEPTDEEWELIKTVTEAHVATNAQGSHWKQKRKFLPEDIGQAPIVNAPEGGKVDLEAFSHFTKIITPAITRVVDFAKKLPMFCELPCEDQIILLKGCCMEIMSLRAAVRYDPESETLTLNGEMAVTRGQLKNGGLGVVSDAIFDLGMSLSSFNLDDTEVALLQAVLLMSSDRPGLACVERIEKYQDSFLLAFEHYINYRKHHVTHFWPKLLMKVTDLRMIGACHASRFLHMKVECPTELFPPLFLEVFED
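Human TRb ligand-binding domain (0.6 uM) is mixed with 20 nM Texas Red SRC2 peptide and 1 uM T3; after compound addition and 5 hr at ambient temperature, polarization is measured and normalized to unbound and bound controls.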
ALDH1A1 inh – qHTS Assay for Inhibitors of Aldehyde Dehydrogenase 1 (ALDH1A1); Aldehyde dehydrogenase 1A1 (Homo sapiens), P00352; Purified ALDH1A1, NADH fluorescence, propionaldehyde substrate; Potency, µM (highest dose often 75.3 µM), for the others: at the top dose activity, negative = inhibition, most hits filed as inhibitors; hit rate 7.3% among 220,000; active means well fitted inhibition curve with a large enough effect, not every such curve was filed as active; inconclusive means small, poorly fitted or top-dose-only effect, or another doubt; inactive means no such curve, though single readings can be large or run the other way;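 further: plate controls were no enzyme wells and a reference inhibitor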
Tau fluor counter – Counterscreen qHTS for Inhibitors of Tau Fibril Formation, Fluorescence Polarization | tau K18 P301L Alexa594 fluorescence, heparin fibrillization | Potency, µM (series often up to 57.7 µM), without a hit: at the top dose activity change, negative = decrease | hit rate 0.93% among 280,000 | AID 1463, 2008; further: nearly all actives have a fitted effect of over 55% in size
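Human K18 P301L tau (15 uM unlabeled plus 0.24 uM Alexa 594-labeled, final) in 100 mM sodium acetate pH 7 was mixed with compound and 20 uM heparin and incubated 6 hr at 37 C.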
aGal spleen mod – qHTS Assay for Inhibitors and Activators of Human alpha-Galactosidase From Spleen Homogenate | Alpha-galactosidase A (Homo sapiens), P06280 | human spleen homogenate, 4MU-alpha-Gal fluorescence, 40 min | Potency, µM (series often up to 80 µM), for inactives: at the highest dose activity change, negative = inhibition, usual class: inhibitors | hit rate 0.008% among 240,000;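 further: 0% = enzyme with vehicle and -100% = no enzyme basal signal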
Target sequence (P06280 32-429 limits assumed): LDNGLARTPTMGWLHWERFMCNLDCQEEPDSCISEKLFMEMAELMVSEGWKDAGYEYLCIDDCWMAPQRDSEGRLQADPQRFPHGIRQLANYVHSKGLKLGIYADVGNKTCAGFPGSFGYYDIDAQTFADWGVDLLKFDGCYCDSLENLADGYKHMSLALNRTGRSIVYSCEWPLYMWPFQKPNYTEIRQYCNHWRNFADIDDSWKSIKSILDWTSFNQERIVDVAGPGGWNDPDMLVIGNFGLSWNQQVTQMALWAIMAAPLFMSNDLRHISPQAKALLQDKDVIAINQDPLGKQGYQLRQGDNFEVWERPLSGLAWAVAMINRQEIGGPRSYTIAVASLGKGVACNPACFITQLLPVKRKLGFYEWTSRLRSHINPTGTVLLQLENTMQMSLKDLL
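Fluorogenic readout (Ex 365/Em 440 nm) of 4-methylumbelliferone released from 1 mM 4-MU-alpha-galactoside by spleen homogenate, 40 min at 37C, pH 5.0. Data normalized to no-enzyme and enzyme controls; Hill-equation AC50 from compound titrations.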
Tau FP inhib – qHTS for Inhibitors of Tau Fibril Formation, Fluorescence Polarization. Microtubule-associated protein tau (Homo sapiens), P10636. hit rate 0.39% among 280,000. AID 1468, 2008. K18 P301L tau heparin fibrillization, Alexa594 FP, 6 h. Potency, µM (top dose mostly 57.7 µM), without a hit: at the highest dose activity, negative = inhibition, most hits filed as inhibitors; further: nearly all actives have a fitted effect of over 55% in size
Target sequence (P10636 561-689 P618L limits assumed): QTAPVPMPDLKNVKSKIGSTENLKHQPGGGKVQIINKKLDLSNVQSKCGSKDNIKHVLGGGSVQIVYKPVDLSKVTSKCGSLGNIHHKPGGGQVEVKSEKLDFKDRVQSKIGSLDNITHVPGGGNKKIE
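Heparin (20 uM) drove fibril formation of recombinant tau K18 P301L, 15 uM unlabeled with 0.24 uM Alexa 594 label, for 6 hr at 37 C in 100 mM sodium acetate pH 7. Fluorescence polarization (555/632 nm) read 1 hr after 30 uM ThT.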
Tau fibril ThT – qHTS for Inhibitors of Tau Fibril Formation, Thioflavin T Binding; hit rate 2.1% among 270,000; recombinant tau K18 P301L (four-repeat tau fragment), heparin-induced fibrillization, ThT fluorescence; Potency, µM (doses to about 57.4 µM), for the others: at the top dose activity, negative = inhibition, hits mostly inhibitors; Microtubule-associated protein tau (Homo sapiens), P10636; further: nearly all actives have a fitted effect of over 55% in size
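Aggregation was driven by heparin (20 uM final) acting on recombinant tau […] bearing P301L in 100 mM sodium acetate pH 7; fibrils were detected with Thioflavin T.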
TexasRed fluor – Total Fluorescence Counterscreen for Inhibitors of the Interaction of Thyroid Hormone Receptor and Steroid Receptor Coregulator 2; TRb/SRC2 Texas Red total fluorescence interference; Potency, µM (doses to about 106 µM), for inactives: at the highest dose fluorescence change, negative = quenching; hit rate 0.29% among 280,000; AID 1479, 2009; active means well fitted curve in either direction with a large enough effect; inconclusive means small, poorly fitted or top-dose-only effect
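Human TRb ligand-binding domain at 0.6 uM with 20 nM Texas Red SRC2 peptide in Tris buffer containing 1 uM T3 and 5% DMSO, incubated with compound 5 h at ambient temperature. Total fluorescence (555/632 nm) calculated as parallel + 2 × perpendicular.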
The depositor's hits bear a star; ? = inconclusive; · = not tested or not shown; & = joins results of further samples; [ ] = remark or other dose. Unless noted, the call rests on the fitted dose curve; in most records, active means well fitted curve in the direction sought with a large enough effect; inconclusive means small, poorly fitted or top-dose-only effect, or another doubt; inactive means no such curve, though single readings can be large; an effect the other way counts as inactive or inconclusive. Unless noted, on the % scale 0 is the no-effect control and ±100 the full control effect; potency means the concentration at half of the fitted maximal effect. Some of the compounds tested, so the mix of outcomes need not match the whole.

entry	SMILES	TRb SRC2 PPI	ALDH1A1 inh	Tau fluor counter	aGal spleen mod	Tau FP inhib	Tau fibril ThT	TexasRed fluor
1	CC1(C)NC(=O)N(CNc2cc(Cl)ccc2Cl)C1=O	-2.8%	-6.4%	-3.9%	-9.7%	1.4%	-4.2%	-3.2%
2	C[C@]12CCC(=O)C=C1CCC1C2C(=O)C[C@]2(C)C1CC[C@]2(O)C(=O)CO (stereo partly specified)	-1.5%	5.0%	-3.1%	-3.8%	-5.0%	-3.3%	-2.2%
3	CCC(C)c1ccccc1O (stereo unspecified)	1.2%[201 µM]	2.7%&-2.0%	·	3.3%&1.1%	·	·	-1.7%[201 µM]
4	COc1ccc(/C=N/Nc2cc(C)nc(-n3nc(C)cc3C)n2)cc1	0.7%	-1.4%	?	8.5%	?	?	-1.8%
5	Cc1ccccc1NC(=O)NCc1ccc2c(c1)OCO2	3.3%	1.8%	2.4%	-0.9%	-0.7%	3.7%	-1.5%
6	C[C@]12CCC(=O)C=C1CC[C@@H]1[C@@H]2C(=O)C[C@@]2(C)[C@H]1CC[C@]2(O)C(=O)CO	-6.5%	?	-10.3%&-2.4%&-9.5%	5.0%&14.2%&9.1%	-6.7%&1.9%&-6.0%	-14.8%&-0.3%&-14.3%	-11.2%
7	CCOc1cc(S(=O)(=O)NCCN2CCOCC2)c(C)cc1C	8.4%	?	-1.3%	-4.8%	-3.9%	-14.4%	2.0%
8	O=C(Nc1nnc(-c2cccnc2)o1)c1cccc(Cl)c1	-2.2%	7.1%	6.2%	4.3%	2.2%	3.0%	0.1%
9	COC(=O)Cc1cc(=O)n(-c2nc3ccccc3s2)[nH]1	1.4%	-5.1%	-15.5%	-16.1%	8.3%	?	-3.7%
10	Cc1ccsc1/C=N/n1c(COc2ccccc2)n[nH]c1=S	-16.6%	20µM*	-10.4%	3.3%	-4.5%	-8.8%	-2.8%
11	CC1=CCCC(C)(C)C1/C=C/C(C)=N/NC(=O)c1ccncc1 (stereo unspecified)	-4.8%	-12.1%	5.7%	-3.5%	0.7%	1.9%	-1.4%
12	COC(=O)/C=C1\SC(=Nc2ccc(OC)cc2)NC1=O	-2.6%	-4.0%	1.0%	5.8%	1.8%	?	-2.5%
13	Cc1ccc(/C=C/C(=O)NCc2ccco2)o1	2.3%	?	-6.0%	4.5%	?	?	-1.4%
14	COc1ccccc1C1/C(=C(/O)c2ccccc2)C(=O)C(=O)N1CC(C)O (stereo unspecified)	0.4%	-2.6%	-1.8%	-3.8%	1.3%	-12.6%	-4.9%
15	COc1ccc(C2C(C(=O)N3CCC(C)CC3)c3ccccc3C(=O)N2C)cc1 (stereo unspecified)	-0.9%	-4.6%	-3.1%	-1.3%	-4.8%	-11.8%	1.3%
16	Cc1nc(N2CCN(C(=O)c3ccco3)CC2)c2c3c(sc2n1)CCCC3	-4.7%	39.8µM*	-3.3%	-15.4%	0.3%	-17.9%	-1.1%
17	COc1ccc(C(=O)NCCc2c[nH]c3ccccc23)cc1S(=O)(=O)N1CCOCC1	-5.4%	-0.8%	-15.6%	-2.8%	15.3%	-1.5%	-6.1%
18	COC(=O)CSc1nc(N2CCOCC2)c2c(c1C#N)CCCC2	1.6%	·	-17.6%	6.0%	-6.2%	-8.8%	-1.1%
19	CCCCCSc1nc(O)cc(=O)[nH]1	-13.9%	1.7%	4.0%	1.0%	7.7%	-1.9%	-1.8%
20	CCOC(=O)CSc1nc(C)c2cc(C)c(C)cc2n1	0.4%	-14.5%	-11.6%	-3.0%	2.0%	-19.7%	-1.2%
21	Cc1ccc(-n2[nH]c(C)c(/C=N/Nc3ccc([N+](=O)[O-])cc3[N+](=O)[O-])c2=O)cc1	2.0%	?	3.16µM*[quencher]	7.6%	10µM*	1.58µM*	-24.9%
22	COc1ccc2cc3cc(C(=O)NCCN4CCc5ccccc5C4)sc3nc2c1	-2.5%	?	-17.7%	-2.9%	-9.2%	-16.8%	-0.9%
23	S=C(NCc1ccc2c(c1)OCO2)NCc1ccc2c(c1)OCO2	-1.1%[53 µM]	?	-8.2%	-0.7%	-9.1%	-1.0%	-1.5%[53 µM]
24	Cc1ccc(C)c(NC(=S)NCc2cccs2)c1	-0.1%	-8.3%	2.8%	7.4%	7.4%	4.8%	-7.0%
25	CCC(=O)Nc1cccc(NC(=O)COc2ccc(OC)cc2)c1	-4.5%	1.1%	5.9%	-5.5%	-0.1%	-3.3%	-0.4%
26	COc1ccc(NC(=O)C2(c3ccc(NC(=O)c4ccc(OC)c(OC)c4)cc3)CCCC2)cc1	2.9%	-8.7%	-5.3%	0.8%	-8.0%	2.7%	0.5%
27	CCCSc1nc(N2CCOCC2)c2c(c1C#N)CCCC2	-3.9%	14.1µM*	-12.0%	-1.6%	-8.4%	?	0.7%
28	CCOC(=O)c1cc(Br)c(=O)n2ccccc12	8.4%	-3.5%	0.9%	8.9%	0.9%	-2.2%	2.1%
29	O=C1SC(SCc2ccccc2Cl)=N/C1=C\c1ccc(C(=O)O)cc1	2.2%	?	-8.4%	-1.9%	-7.6%	?	-1.5%
30	CCc1nc(CNC(=O)c2cc(OC)c(OC)c(OC)c2)no1	-7.2%	-5.5%	-7.5%	-4.1%	10.5%	-2.3%	-5.3%
31	O=C(O)/C=C/C(=O)N(CC1CCCO1)C1CC(=O)N(c2c(Cl)cccc2Cl)C1=O (stereo unspecified)	-0.9%	·	2.4%	-0.3%	2.6%	-5.3%	-1.8%
32	Cn1c(N)c(C(=O)c2cc(-c3ccncc3)nc3ccccc23)c(=O)n(C)c1=O	-7.1%	0.2%	1.4%	7.2%	-0.6%	-4.1%	-1.2%
33	CCn1c(COc2ccc(C)cc2)nnc1SCC(=O)NNC(=O)c1ccc(OC)cc1	9.9%	-8.0%	-2.9%	5.6%	-2.0%	0.8%	-0.3%
34	O=C(CSc1ccc(Cl)cc1)NNC(=O)c1cccnc1	-2.1%	9.1%	2.1%	-0.9%	6.2%	0.7%	-1.2%
35	O=C(Nc1ccc2c(c1)ncn2C1CCCCC1)c1ccco1	-1.0%	?	-5.4%	-6.2%	-2.0%	?	-2.7%
36	COC(=O)/C=C1\S/C(=N/NC(=O)c2ccccc2)NC1=O	-10.0%	?	-2.5%	-8.8%	?	?	-4.0%
37	CCCCOC(=O)c1ccc(NC(=O)COC(=O)CSc2nc(C)cc(C)n2)cc1	5.7%	?	-17.0%	-8.6%	-6.0%	-3.1%	-0.4%
38	COCCn1c(-c2ccc(Cl)cc2)nc2oc3cc(OC)ccc3c(=O)c2c1=O	9.0%	·	-17.6%	0.2%	-2.4%	-14.2%	-4.4%
39	NS(=O)(=O)c1ccc(NC(=O)c2ccc3nccnc3c2)cc1	-1.0%	·	-6.9%	-6.4%	-3.0%	-17.6%	-7.7%
40	NS(=O)(=O)c1ccc(NC(=S)NC(=O)/C=C/c2ccco2)cc1	4.6%	?	-27.4%	-0.1%	-5.8%	?	-3.9%
41	Brc1cccc(/C=N/Nc2nn[nH]n2)c1	2.5%	1.8%	-0.5%	-4.0%	3.5%	1.0%	-1.6%
42	CC(C)(C)C(=O)NC(=S)NNC(=O)c1ccc(Cl)cc1Cl	-9.9%	9.6%	13.0%	-5.0%	9.4%	7.4%	-3.4%
43	CCc1nc2oc3cc(OC)ccc3c(=O)c2c(=O)n1Cc1ccco1	4.6%	?	-3.2%	5.2%	1.9%	-14.5%	4.5%
44	O=C(CN(Cc1ccc(F)cc1)C(=O)c1ccco1)NCc1ccc(F)cc1	-8.3%	?	-4.7%	-3.7%	-1.6%	-7.9%	0.4%
45	COc1ccc(-c2cc(OC(=O)c3ccc(F)cc3)c3c(C)oc(C)c3c(=O)c2)cc1	-1.2%	-7.0%	-24.0%	-2.2%	-10.1%	?	1.9%
46	C[C@@H]1C[C@H]2[C@@H]3CCC4=CC(=O)C=C[C@]4(C)[C@@]3(F)[C@@H](O)C[C@]2(C)[C@@]1(O)C(=O)CO	4.4%[201 µM]	5.5%&6.4%	-12.1%	1.9%&10.7%&-0.4%	0.7%	-14.3%	-0.3%[201 µM]
47	CC(C)NC(=O)NC(=O)COC(=O)Cc1c(F)cccc1Cl	2.9%	0.4%	-1.6%	6.8%	4.0%	-7.7%	-2.0%
48	CC(=O)C1=C(C)Nc2ncnn2C1c1cccc(OCc2ccccc2)c1 (stereo unspecified)	-5.1%	5.8%	6.9%	-15.7%	1.0%	-3.8%	0.1%
49	COc1ccc(C2C(C(=O)N3CCCC3)c3cc(OC)c(OC)cc3C(=O)N2C)cc1OC (stereo unspecified)	-1.2%	10.3%	7.3%	3.7%	1.2%	6.2%	2.6%
50	O=C(Nc1nc(-c2ccc(Cl)s2)cs1)c1ccco1	7.8%	?	?	9.4%	-8.3%	?	-0.9%
51	Cc1cc(NC(=O)CN2CC3CC(C2)c2cccc(=O)n2C3)nc2c1c(=O)oc1ccccc12 (stereo unspecified)	-4.5%	28.2µM*	-6.3%	-4.3%	4.6%	-17.9%	-0.6%
52	O=C(O)c1cc2ccccc2cc1Nc1ccccc1	1.0%	·	-24.7%	6.9%	10.2%	?	-2.3%
53	COc1ccc(Br)cc1/C=N/n1c(C)nnc1C	-1.2%	4.7%	2.6%	-1.1%	5.1%	-2.9%	2.2%
54	Cc1ccc(C(=O)NC2CCCCCC2)cc1N1CCCC1=O	-9.6%	5.3%	3.3%	1.0%	-0.5%	0.1%	-1.0%

Compound profiles, as listed above. Values in the order: TRb SRC2 PPI	ALDH1A1 inh	Tau fluor counter	aGal spleen mod	Tau FP inhib	Tau fibril ThT	TexasRed fluor
CCn1c(COc2ccc(C)cc2)nnc1SCC(=O)NNC(=O)c1ccc(OC)cc1 reads 9.9%	-8.0%	-2.9%	5.6%	-2.0%	0.8%	-0.3%
Cc1ccc(C(=O)NC2CCCCCC2)cc1N1CCCC1=O reads -9.6%	5.3%	3.3%	1.0%	-0.5%	0.1%	-1.0%
